Six1-Eya2 blk: qHTS Assay for Inhibitors of the Six1/Eya2 Interaction. Homeobox protein SIX1 (Homo sapiens) + Protein phosphatase EYA2 (Homo sapiens), …. AlphaScreen GST-Six1/His-Eya2 binding, biochemical; hits give low values; control for the full effect not named in the record. activity change, % (test concentration not listed). hit rate 0.56% among 360,000; in the data active = activity change below about -65%; inconclusive = about -30% to -65%; inactive = above about -30%; further: on the % scale 0 is the no-effect control and ±100 the full control effect; compound concentration not given in the record
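Compounds are tested against tagged Six1 and Eya2 proteins bridged by glutathione donor and nickel acceptor beads; after a one-hour incubation at 37 °C without light, AlphaScreen emission is recorded.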
D2 agonist: Beta-Arrestin HTS for Positive Allosteric Modulators of the Human D2 Dopamine Receptor: Agonists; AID 624465, 2012; D(2) dopamine receptor (Homo sapiens), P14416; activation, % (no concentration beside the values); DiscoveRx PathHunter D2 beta-arrestin, luminescence, 90 min; 100% = 57 uM dopamine signal; hit rate 0.084% among 360,000; in the data active = activation above about 40%; inconclusive = about 15% to 40%; inactive = below about 15%; further: compound concentration not given in the record; the text of the record calls up to 30% inactive
Target sequence (P14416 whole entry, looked up): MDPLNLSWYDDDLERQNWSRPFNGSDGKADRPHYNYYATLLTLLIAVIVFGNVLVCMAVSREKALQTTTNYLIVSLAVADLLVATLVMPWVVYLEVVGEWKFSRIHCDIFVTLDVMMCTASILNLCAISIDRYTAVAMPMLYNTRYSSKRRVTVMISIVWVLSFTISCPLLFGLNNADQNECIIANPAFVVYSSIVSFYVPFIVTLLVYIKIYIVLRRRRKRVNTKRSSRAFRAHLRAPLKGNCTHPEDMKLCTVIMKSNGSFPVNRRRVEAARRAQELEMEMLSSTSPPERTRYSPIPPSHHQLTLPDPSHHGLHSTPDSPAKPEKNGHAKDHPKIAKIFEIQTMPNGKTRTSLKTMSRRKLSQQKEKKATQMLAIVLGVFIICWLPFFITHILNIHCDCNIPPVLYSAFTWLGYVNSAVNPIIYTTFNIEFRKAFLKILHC
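DiscoveRx PathHunter D2 beta-arrestin cells (2,100/well) attached overnight, then compound-stimulated 90 min at 37 C in HBSS/10 mM HEPES/0.1% Tween-20 buffer; beta-galactosidase complementation read by luminescence after 1 h at ambient temperature. Dopamine 57 uM final (EC100) as control.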
TRPML1 ag: qHTS for Agonists of the Human Mucolipin Transient Receptor Potential 1 (TRPML1); Mucolipin-1 (Homo sapiens), Q9GZU1; activation, % (no concentration beside the values); TRPML1-expressing cells, Ca2+ dye fluorescence, FDSS; host cell line not named in the record; reference of the full effect not given here; hit rate 0.12% among 410,000; in the data active = activation above about 50%; inconclusive = about 30% to 50%; inactive = below about 30%; further: 0% is about no effect; the text of the record puts the active cut at 80%
Target sequence (Q9GZU1 whole entry, looked up): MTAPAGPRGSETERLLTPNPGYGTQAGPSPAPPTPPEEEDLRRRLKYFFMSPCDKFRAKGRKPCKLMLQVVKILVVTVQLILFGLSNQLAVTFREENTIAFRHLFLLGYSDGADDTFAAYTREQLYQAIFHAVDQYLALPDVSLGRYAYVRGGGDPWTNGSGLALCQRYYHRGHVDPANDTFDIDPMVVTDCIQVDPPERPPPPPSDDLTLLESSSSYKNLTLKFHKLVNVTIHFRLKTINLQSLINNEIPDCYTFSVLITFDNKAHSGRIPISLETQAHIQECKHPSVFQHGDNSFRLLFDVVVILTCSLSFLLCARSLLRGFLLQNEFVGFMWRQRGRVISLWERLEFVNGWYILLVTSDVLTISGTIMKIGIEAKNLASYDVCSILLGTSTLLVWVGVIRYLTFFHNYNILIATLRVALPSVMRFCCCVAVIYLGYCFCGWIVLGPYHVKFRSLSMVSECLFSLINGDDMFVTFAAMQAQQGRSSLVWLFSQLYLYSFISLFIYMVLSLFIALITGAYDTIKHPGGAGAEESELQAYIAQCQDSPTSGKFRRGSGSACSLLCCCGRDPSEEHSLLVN
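In this qHTS format, compounds were pin-transferred onto Ca8-dye-loaded TRPML1-DL cells induced with Tet overnight, and intracellular Ca2+ fluorescence was recorded kinetically for 110 s after a 10 s baseline. A subsequent 4uM final 54-4 (EC80) addition followed by a second 110 s read served as the antagonist phase.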
D2 PAM: Beta-Arrestin HTS for Positive Allosteric Modulators of the Human D2 Dopamine Receptor: Potentiators; hit rate 0.23% among 360,000; potentiation, % (test concentration not listed); AID 624464, 2012; DiscoveRx D2 beta-arrestin cells, luminescence, 90 min; 100% = 57 uM dopamine signal; D(2) dopamine receptor (Homo sapiens), P14416; active = potentiation of 50% or more; inconclusive = 30% to 50%; inactive = 30% or less;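 further: compound concentration not given in the record; tested on top of an EC20 dose of dopamine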
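D2 cells co-treated with compound plus 50 nM dopamine (EC20) for 90 min at 37 deg C to detect potentiation. Beta-arrestin recruitment was read as enzyme-fragment luminescence after 1 h at ambient temperature. Full response was set by 57 uM dopamine.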
PINK1 expr mod: A Quantitative High throughput Screen to Identify Chemical Modulators of PINK1 Expression; PINK1 immunofluorescence, high-content cytometry, 24 h; AID 624263, 2012; hit rate 0.2% among 410,000; Potency, µM (top dose mostly 76.6 µM), for the others: at the top dose activation (PINK1 increase), hits mostly activators; active = well fitted activation curve with a large enough effect; inconclusive = small, poorly fitted or top-dose-only effect; inactive = flat fitted curve, though single readings scatter; cell line not stated here;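 further: potency means the concentration at half of the fitted maximal effect; % of control where 0% means no effect; nearly all actives have a fitted effect of over 65% in size; a mitochondrial uncoupler was the plate control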
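A stable cell line was treated with compounds at 5 concentrations for 24 hours, with CCCP as control. PINK1 levels and mitochondrial localization were measured by immunofluorescence with mitochondrial, cell and nuclear markers after fixation, read by laser-scanning cytometry.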
TRPML1 inh: qHTS for Inhibitors of the Human Mucolipin Transient Receptor Potential 1 (TRPML1); AID 624415, 2012; TRPML1-inducible cells, Ca2+ dye fluorescence, FDSS; hits give low values; inhibition of EC80 agonist-evoked calcium signal; hit rate 0.02% among 390,000; activity change, negative = inhibition, % (no concentration beside the values); Mucolipin-1 (Homo sapiens), Q9GZU1; in the data active means activity change below about -50%; inconclusive means about -30% to -50%; inactive means above about -30%;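 further: stimulus is agonist 54-4 at its EC80 concentration; on the % scale 0 is the no-effect control and ±100 the full control effect; compound concentration not given in the record; the text of the record puts the active cut at -80%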
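Tet-induced TRPML1-DL cells loaded with Ca8 no-wash calcium dye were read kinetically on FDSS. Compound addition was followed by EC80 agonist 54-4 (4 uM final); inhibition was read over 110 s.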
* marks the source's active call; other numbers are inactive results; ? = inconclusive; . = no result given; & = joins results of further samples; [ ] = remark or other dose.

SMILES	Six1-Eya2 blk	D2 agonist	TRPML1 ag	D2 PAM	PINK1 expr mod	TRPML1 inh
CCOC(=O)c1ccc(OCC2NCCc3cc(OC)c(OC)cc32)cc1 (configuration not stated)	-5	-2.1	0.2	-23	-1.5%	10
C=CCn1c(SCC(=O)NC(=O)NCCC)nnc1C1CCCCC1	5	-3.1	-0.6	-6	-0.1%	-8
Cc1ccc(NN=Nc2nc3c([nH]2)c(=O)n(C)c(=O)n3C)cc1	-14	-1.6	-0.5	-4	18%	-8
CN1CCN(c2ccccc2NC(=O)c2ccc(-c3ccccc3[N+](=O)[O-])o2)CC1	?	2.7	-0.3	-22	-2.2%	-5
COc1ccccc1NC(=O)COc1ccc(-c2nn(C)c(=O)c3ccccc23)cc1	-19	0.0	1.1&2.5	11	-0.3%&-0.8%	13&-6
COc1cc(C(=O)Nc2c(C(=O)Nc3ccccc3F)oc3ccccc23)cc(OC)c1OC	.	.	0.8	.	6.0%	60
COc1ccc(CCNC(=O)c2ccccc2-c2ccccc2C(=O)O)cc1OC	-20	-5.1	-0.8	-4	0.7%	13
O=C(O)c1ccccc1-c1ccccc1C(=O)Nc1ccccc1Br	6	-0.9	0.1	-3	-0.3%	22
O=C(/C=C/c1ccco1)NCC(=O)N/N=C/c1ccccc1[N+](=O)[O-]	-2	-1.8	1.0	-15	-0.2%	25
CCOc1ccc(-c2cccc(NC(=O)c3ccco3)c2)nn1	-14	0.5	-0.6	9	-0.1%	3

The final 4 entries of the part before lead into the next:
SMILES	Six1-Eya2 blk	D2 agonist	TRPML1 ag	D2 PAM	PINK1 expr mod	TRPML1 inh
COc1ccc(CCNC(=O)c2ccccc2-c2ccccc2C(=O)O)cc1OC	-20	-5.1	-0.8	-4	0.7%	13
O=C(O)c1ccccc1-c1ccccc1C(=O)Nc1ccccc1Br	6	-0.9	0.1	-3	-0.3%	22
O=C(/C=C/c1ccco1)NCC(=O)N/N=C/c1ccccc1[N+](=O)[O-]	-2	-1.8	1.0	-15	-0.2%	25
CCOc1ccc(-c2cccc(NC(=O)c3ccco3)c2)nn1	-14	0.5	-0.6	9	-0.1%	3
CCCOc1cccc(NC(=O)c2c(-c3ccccc3)noc2C)c1	8	2.6	0.9	-17	-1.4%	8
Nc1nc(SCC(=O)NCCC(c2ccccc2)c2ccccc2)n[nH]1	-2	-2.5	-0.2	3	-2.2%	-5
O=C(N/N=C/c1ccco1)c1ccc(OCc2ccccc2)cc1	-5	1.1	1.5	11	1.1%	22
COCCCN1C(=O)c2ccc(C(=O)Nc3ccccc3OC)cc2C1=O	-2	-1.3	-0.6	-10	3.0%	16
O=C(NC(=S)Nc1ccccc1O)c1ccccc1Cl	-2	-4.1	1.0	-11	2.3%	4
Cc1ccc(NC(=O)N2CCCC2C(=O)NCC2CCCO2)cc1 (configuration not stated)	-1	1.6	-0.7	-4	-1.6%	22
Cc1noc(/C=C/N(C)C)c1S(=O)(=O)N(C)Cc1ccc(F)cc1	-9	-0.9	0.5	-12	3.4%	-3
COC(CNC(=O)C1CCC(CNS(=O)(=O)c2c(C)cc(C)cc2C)CC1)OC (configuration not stated)	0	-5.9	1.0	-2	-1.0%	19
Cc1cc(S(=O)(=O)N2CCCC(N(C)CCc3ccccn3)C2)c(C)cc1Cl (configuration not stated)	-25	-1.3	0.3	-20	16%	-1
CC(C)C(=O)N1CCN(CCN=CC2=C(O)CC(c3ccco3)CC2=O)CC1 (configuration not stated)	21&0	-0.4&-2.5	1.1&-0.1	-4&-6	2.2%&0.1%	3&-21
CC(C)Cc1ccc(S(=O)(=O)Nc2ccccn2)cc1	5	-1.4	2.5	-10	0.8%	35
O=C(NCCc1ccccc1)C1CCN(Cc2ccccc2F)CC1	8	1.3	0.2	-8	-1.6%	-30
Cc1cccc(NC(=O)CSc2nnc(-c3ccccc3Br)o2)c1C	14	-1.2	2.5	-5	-3.4%	-11
Cc1nnc(SCC(=O)N(CC(C)C)c2c(N)n(CC(C)C)c(=O)[nH]c2=O)n1-c1ccccc1	-11	-2.6	1.1	6	3.0%	-25
COc1ccc(OC)c2sc(N3CCN(C(=O)c4ccco4)CC3)nc12	.	.	0.4	.	2.0%	24
CC1(C)C2CCC(CN=C(N)CSS(=O)(=O)O)C1C2 (configuration not stated)	0	-8.7	0.2	-36	12%	-17
CCCCOc1ccccc1NC(=O)CC1Sc2ccccc2NC1=O (configuration not stated)	.	.	0.8	.	-4.0%	2
COC(=O)c1sccc1N/N=C/c1ccc(OC)c(OC)c1OC	31	-5.4	2.1	0	1.3%	0
Cc1ccc(NC(=O)COC(=O)c2nn(C)cc2Cl)cc1	3	4.4	0.4	-3	2.2%	11
Cc1cccc(OCc2nc(C#N)c(N3CC(C)CC(C)C3)o2)c1 (configuration not stated)	?	-2.9	4.5	-2	-3.2%	31
COc1ccc2c(c1)cc1n2CCN2CCCN=C12	-1	-1.2	3.6	-6	0.4%[38.3 µM]	0
COCCCNC(=O)C(C)N1c2cccc3cccc(c23)S1(=O)=O (configuration not stated)	-8	6.2	0.9	-49	1.3%	-7
COc1ccc(OCC(=O)NNC(=O)Cn2c(=O)cnc3ccccc32)cc1	-3	-2.3	-0.5	-14	0.5%	3
CC1=CC(=O)C(C(C)=Nc2ccccc2[N+](=O)[O-])C(=O)O1 (configuration not stated)	2	-3.6	-0.6	-15	0.6%	3
O=S(=O)(c1ccc2c(c1)OCCO2)N1CCC(c2nc3ccccc3s2)CC1	-1	-2.5	1.6	0	11µM*	-13
CCOc1nc(Nc2ccc(OC)cc2)nc(N2CCOCC2)n1	-3	-3.0	1.1	-9	0.0%	?
CN(C)S(=O)(=O)NC(c1ccccc1)c1ccccc1	1	-2.4	-0.8	-1	0.2%	2
Cc1oc(-c2ccc(Cl)cc2)nc1CN1CCC(C(=O)NCCCN2CCN(c3cccc(Cl)c3)CC2)CC1	.	.	1.5	.	2.2%	6
O=Cc1ccc2oc3nc4n(c(=O)c3c(=O)c2c1)CCCS4	?	-0.4	0.6	-6	-1.0%	-3
O=C(O)CC1SC(=Nc2cccc(O)c2)NC1=O (configuration not stated)	5	-3.3	0.7	-6	1.2%[38.3 µM]	-5
N#Cc1cccc(-n2nnnc2-c2ccccn2)c1	-1	-2.1	0.8	-19	-0.3%	-1
Cc1c(Br)c([N+](=O)[O-])nn1C(C)C(=O)NCc1cccnc1 (configuration not stated)	1	0.7	0.1	-3	10%[38.3 µM]	-10
Cc1c(C)n(CCCN(C)C)c2ncnc(NC3CCCCC3)c12	-10	-1.0	-1.4	-5	2.9%	-4
COCCCN1CN(Cc2ccccc2)CNC1=S	-9	-1.0	0.1	-2	-2.1%	4
CCC(C)NC(=O)Cc1c(OC)ccc2cc(Br)ccc12 (configuration not stated)	-1	-0.8	-0.5	0	7.1%	10
COc1cc(NC(=O)Cn2cnc(S(=O)(=O)N3CCCC3)c2)cc(OC)c1OC	-3	-1.4	0.2&-0.7	-27	-0.4%&0.6%	-3&-14
CCc1ccc(C(C)NC(=O)c2cc(C)oc2C)cc1 (configuration not stated)	5	-2.8	-0.4	-4	0.1%	-3
O=S(=O)(NCCc1csc2nc(-c3ccc(Cl)cc3)nn12)c1cccs1	.	.	0.8	.	5.0%	-6
O=C(NNc1c(Cl)cc(Cl)cc1Cl)C1CCC1	2	-1.3	-0.8	-14	1.0%	-2
O=C1c2ccccc2C(c2nnnn2Cc2ccccc2)N1Cc1ccc(F)cc1 (configuration not stated)	5	.	-0.6	.	3.4%	.
CCSc1nc(=O)n(-c2ccccc2)c(C)c1C(C)=S	0	-2.2	1.7	-8	-1.3%	-7
O=C(CCN1C(=O)/C(=C/c2ccco2)SC1=S)Nc1ccc(O)cc1C(=O)O	-68*	-3.3	-0.1	0	-1.2%	2
CCOc1ccccc1C(C(=O)NC1CCCCC1)N(C(=O)c1csnn1)C1CC1 (configuration not stated)	0	1.4	-0.6	-5	1.4%	7
CCCCOc1ccc(OCCCC)c2c1NC1(N2)C(=O)N(C(C)=O)c2ccccc21	3	5.0	4.1	1	3.7%	-15
CC1(c2nnc(-c3ccc(Cl)cc3)o2)CC(c2cccc(Cl)c2)=NO1 (configuration not stated)	3	-2.5	2.3	-3	0.5%	16
CCOC(=O)N1CCC(NC(=O)c2ccc3c(c2)N(Cc2ccccc2C)C(=O)c2ccccc2S3=O)CC1 (configuration not stated)	.	.	1.2	.	0.1%	15
O=C(Cn1cccc1)NC1CCCCCC1	14	-3.8	0.0	-13	?	-2
COc1cc(CN2CCN(Cc3ccco3)CC2)cc(OC)c1	6	-4.4	-0.1	-5	1.4%	13
c1ccc(-c2ccnc3nc(N4CCN(c5ccccc5)CC4)nn23)cc1	-9	-3.7	1.0	-18	0.3%	-4
O=C(CCc1nc2ccccc2c(=O)[nH]1)Nc1cccc(S(=O)(=O)N2CCCCC2)c1	-29	-0.3	1.0	-1	2.4%	15

Next results
SMILES	Six1-Eya2 blk	D2 agonist	TRPML1 ag	D2 PAM	PINK1 expr mod	TRPML1 inh
CN1CCN(C(=S)c2cn(Cc3ccc(F)cc3)c3ccccc23)CC1	-9	-3.7	0.8	-7	1.4%	-1
CCc1nc(SCC(=O)NC2CCCC2)c2oc3ccccc3c2n1	5	-1.9	-0.5	-11	1.0%	-5
CCOC(=O)Cn1c(C)cc(=O)c2ccccc21	2	-1.9	-0.7	-16	1.7%	-3
O=C1CC2(CCN(C(=O)c3ccc(Cl)cc3)CC2)Oc2ccccc21	-7	-0.7	0.4	-16	-2.9%	3
COc1c(OC(C)=O)c(=O)n2c3ccccc3c3ccnc1c32	-13	0.0	0.7	-3	0.0%	3
O=C(O)c1[nH]c2ccc(Cl)cc2c1CC(=O)N1CCN(C(=O)c2ccco2)CC1	-11	-0.8	-0.4	3	0.6%	-6
COc1cccc(C(=O)N2CCC(n3nccc3NC(=O)C3CCOC3)CC2)c1 (configuration not stated)	10	-2.3	0.1	7	0.9%	-10
Cc1ccc(-c2nc3[nH]c(=O)cc(NC(=O)C(C)C)n3n2)cc1	0	-6.9	.	-5	1.8%	.
O=C(/C=N/O)NCc1ccncc1	1	-0.5	0.8	-11	1.3%	6
O=C(CCS(=O)(=O)c1ccc(Cl)cc1)OCC(=O)N1CCCCC1	12	-0.3	-0.3	5	0.3%	6
N#Cc1c(C#N)c(-c2ccccc2)n(-c2ccccc2)c1N	-16	-0.3	0.9	4	7.5%	10
CCCCn1c(N)c(N(CC(C)C)C(=O)c2oc3c(Cl)cccc3c2C)c(=O)[nH]c1=O	-3	-1.6	0.5	-68	-2.4%	3

Source: PubChem BioAssay

Outcome played no part in choosing rows; overall some 1% were active at least once.
